Compound activity from PubChem BioAssay.
PrP 5UTR inh: inhibition of PrP 5' UTR reporter expression; cell-based PrP 5' UTR mRNA reporter, plate reader; inhibition, % (concentration not given with the values); 0.35% of 340,000 active;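 active = every replicate at 50% or more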;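 note: 0 = median of the neutral control wells; tested in H4 reporter cells; numbers are from one replicate; inactives centre near -14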
Mtb hypoxia inh: PubChem AID 1159583 | M. tuberculosis hypoxia-regulated fluorescent reporter, fluorescence | fluorescence inhibition, % (test concentration not listed) | 0.1% of 300,000 active;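 active = 35 to 45% if threefold the growth effect, above 45% if 1.5-fold the growth effect; inactive = the rest, general growth blockers included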;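 note: wells of about 50 µL received 100 nL stock; 0% = vehicle wells and 100% = reference inhibitor wells; whole bacteria with a GFP reporter of the hypoxia response; strong numbers were not always called active; many hits fall short of the cut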
RN4220 kill: growth inhibition of S. aureus RN4220, primary screen, OD600. 16 h. inhibition, % (test concentration not listed). 0.33% of 330,000 active;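 active = z-score of -3 or lower and OD600 up to 0.18 on both plates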;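 note: plate controls were untreated cells for no effect and reference antibiotic for full effect; stock transfer was 100 nL into about 80 µL; one replicate is shown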
ugtP null kill: growth inhibition of ugtP-null S. aureus, primary screen, RN4220 ugtP deletion, OD600; AID 1259309, 2017; 0.54% of 330,000 active; growth inhibition, % (test concentration not listed); 16 h; some inactives read as strong as hits;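 active = z-score under -3 and OD600 up to 0.15 on both plates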;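 note: plate controls were untreated wells for no effect and antibiotic for full effect; wells of about 80 µL received 100 nL stock; the first replicate is given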
Autofluor counter: flagged as autofluorescent in microsphere protease counterscreen. compound autofluorescence counterscreen, microsphere flow cytometry; active compounds read high. fluorescence intensity (no concentration beside the values). 3.1% of 360,000 active. AID 624483;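 active = at least 3 SD above the mean of all compounds, about 16000 in these data; inconclusive = too few beads counted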;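 note: 100 nL of 1 mM stock went into each well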
BJeLR lethal: MLPCN primary cell-based screen for lethality selective to Ras in HRASV12 cells. AID 1554, 2009. inhibition, % (no concentration beside the values). BJeLR (HRASV12) viability, CellTiter-Glo ATP luminescence, 48 h; reference of the scale not given here. 0.17% of 300,000 active;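 active = replicate mean above 50%; inconclusive = above 50% but judged a plate artefact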;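 note: 50 nL library stock added to about 25 µL; numbers are from one replicate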
Mtb hypoxia inh growth: also measured in Mtb hypoxia inh; calls as there; growth inhibition, %; measured here: M. tuberculosis growth (absorbance);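 0% = vehicle and 100% = reference antibiotic; read after six days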
* hit, by the source's call; ? = inconclusive; / = no result given.

SMILES | PrP 5UTR inh | Mtb hypoxia inh | Mtb hypoxia inh growth | RN4220 kill | ugtP null kill | Autofluor counter | BJeLR lethal
Cc1ccc(-c2cc(C(=O)NCCc3ccc(S(N)(=O)=O)cc3)c3ccccc3n2)cc1 | -16 | 4 | 6 | -2.1 | 5 | 2051 | 2
N/C(=N\OC(=O)COc1ccc(Cl)cc1Br)c1ccncc1 | -124 | 5 | -1 | 5.6 | 1 | 3684 | /
CCn1cc(C(=O)O)c(=O)c2cnc(N3CCN(C(=S)NC(=O)c4ccccc4)CC3)nc21 | -16 | 6 | -5 | 20 | 18 | 5773 | -2
CC1CCc2c(sc(N=Cc3cccnc3)c2C(N)=O)C1 (stereo unspecified) | / | 16 | 1 | 4.0 | 5 | / | /
CN1CCCN(S(=O)(=O)c2ccc(O)c(C(=O)O)c2)CC1 | -10 | 2 | -5 | 1.6 | 4 | 3161 | -8
COc1ccc(-c2cc3nc(C)cc(N)n3n2)cc1 | -3 | 10 | 13 | 4.2 | 8 | 4126 | 51*
COc1ccccc1NC(=O)CCn1cccc1 | -39 | 18 | 14 | -0.4 | 0 | 3801 | -8
COc1ccccc1NC(=O)CCCNC(=O)Cn1cnc2sc(C)c(C)c2c1=O | -22 | 10 | 0 | 4.1 | 0 | 5454 | -2
O=C(COc1ccccc1F)NC12CC3CC(CC(C3)C1)C2 | -25 | / | / | 4.6 | -4 | 4274 | 7
Nc1cc(N)nc(SCC(=O)NNC(=O)Cc2ccccc2)n1 | -8 | 16 | 5 | -6.0 | 2 | 4572 | 9
Cc1cc(C(=O)NN=Cc2ccc3c(c2)OCO3)c(C)n1-c1ccc(F)cc1 | / | 11 | 10 | 4.6 | 6 | / | /
COCCNS(=O)(=O)c1cc(OC)c(Cl)cc1Cl | / | 6 | 0 | 1.6 | 0 | / | -9
OC(CNCc1ccccc1)(c1ccccc1)c1ccccc1 | -19 | 4 | 3 | 4.3 | 6 | 4191 | 17
O=C1CSC(c2ccc([N+](=O)[O-])cc2)N1Cc1ccccc1 (stereo unspecified) | -24 | 0 | 9 | -1.4 | 0 | 4198 | 2
COc1ccccc1NS(=O)(=O)c1cccc(C(=O)OCc2nc3ccccc3s2)c1 | -30 | 0 | 0 | 8.6 | -9 | 2349 | -7
Cc1[nH]c2ccccc2c1C(=O)CN1CCSCC1 | -4 | 11 | -5 | 6.2 | -4 | 3675 | -2
CC(C)(C)C(=O)N1CCN(c2ncccc2C(F)(F)F)CC1 | -22 | -5 | 12 | 3.1 | 3 | 3733 | -8
Cc1cc(C(=O)CSc2nc(N)cc(=O)[nH]2)c(C)n1Cc1ccco1 | -22 | 6 | 5 | 1.0 | -5 | 3974 | 7
O=C(CSc1nnc(NC(=O)C2CC2)s1)Nc1ccccc1 | -16 | 3 | -12 | 2.7 | 12 | 5901 | 3
Cc1ccc2cccc(OCC(=O)Nc3ccc4c(c3)OCO4)c2n1 | -20 | 7 | 12 | 8.3 | 1 | 6443 | 6
CCc1ccc(-c2csc3[n+]2CCN3C(C)=O)cc1 | -21 | 7 | 12 | 3.1 | 0 | 9757 | 7
CC1=C(C(=O)Nc2ccccn2)C(c2ccccc2Cl)NC(=S)N1 (stereo unspecified) | -62 | 7 | -1 | 2.0 | 2 | 2587 | -4
O=C(COC(=O)CC1CCS(=O)(=O)C1)Nc1ccc(F)cc1 (stereo unspecified) | -4 | 5 | 12 | 6.0 | 2 | 5867 | /
CS(=O)(=O)c1cccc(C(=O)NCc2ccccc2)c1 | -13 | 3 | 4 | 2.3 | 4 | 5608 | 6
Cc1nc(-c2cccnc2)sc1C(=O)NN=Cc1ccccc1Cl | / | -3 | 14 | 1.9 | 1 | / | /
CC(C)C[C@H](NC(=O)OC(C)(C)C)C(=O)N/N=C/C1=Cc2ccccc2OC1C (stereo partly specified) | -16 | / | / | / | / | 11525 | 3
COc1ccc(C2=NN(C(=O)CCCC(=O)O)C(c3cccs3)C2)cc1OC (stereo unspecified) | -21 | -4 | 7 | 0.9 | 1 | 4735 | -9
O=C(CSc1nnc(C2CC2)n1Cc1ccccc1)N1CCNC1=O | -22 | 13 | 6 | 3.2 | -1 | 3776 | /
Cc1ccc(NC(=S)Nc2cccc3cnccc23)c(C)c1 | -15 | -1 | 7 | 3.4 | 8 | 4472 | 9
Cc1ccccc1-c1noc(-c2ccccc2C(=O)NCc2ccco2)n1 | 4 | -4 | 0 | 0.1 | 9 | 6422 | 3
CCC(c1nnnn1C(C)(C)CC)N1CCN(c2ccccc2F)CC1 (stereo unspecified) | -27 | 4 | 1 | 5.8 | 14 | 5140 | 7
CCOC(=O)N1CCN(Cc2nc(N)nc(Nc3ccc(Cl)cc3)n2)CC1 | 4 | 3 | 13 | -0.1 | 4 | 3343 | -4
OC1(c2ccccc2F)CC2CCC(C1)N2CCN1CCOCC1 (stereo unspecified) | -2 | / | / | 2.9 | 5 | 4433 | 30
Cc1ccc(Cl)c(OCCN2CCc3ccccc3C2)c1 | -23 | 4 | -3 | 9.8 | 10 | 3297 | 5
CCN(C(=O)COC(=O)c1ccc2c(c1)OCO2)c1c(N)n(Cc2ccccc2)c(=O)[nH]c1=O | -5 | -1 | 4 | 2.2 | 6 | 6622 | /
O=C(NCC1OCCc2ccccc21)c1ccc(NC(=O)c2cccc(Br)c2)cc1 (stereo unspecified) | -32 | -5 | -2 | -0.2 | 6 | 2256 | -4
NC(=O)C1CCN(C(=O)CN(c2cccc(C(F)(F)F)c2)S(=O)(=O)c2ccccc2)CC1 | -5 | 14 | 12 | 9.1 | 9 | 2588 | 4
Clc1cccc2sc(N3CCN(c4ccccc4)CC3)nc12 | -47 | 9 | 2 | 3.7 | -4 | 2256 | -1
NC(=O)c1ccc(N2CCCCC2)c(N2C(=O)C3CC=CCC3C2=O)c1 (stereo unspecified) | -9 | -5 | -2 | 4.2 | 4 | 2904 | 18
CC(C(=O)NC1CCCC1)N1C(=O)c2cccc3cccc1c23 (stereo unspecified) | -4 | 8 | 2 | 1.1 | 9 | ? | -1
Cn1c(=O)c(=O)n(C)c2cc([N+](=O)[O-])c(N3CCOCC3)cc21 | -45 | 0 | -1 | 0.5 | 4 | 3491 | 2
CC(SCc1ccccc1)C(=O)NN=Cc1cccs1 (stereo unspecified) | / | 6 | 6 | 4.0 | 6 | / | /
CN1C(=O)c2ccc(NC(=O)c3ccc(N4CCCCC4)c([N+](=O)[O-])c3)cc2C1=O | -26 | 12 | 5 | 7.7 | -20 | 2545 | 1
COc1ccccc1OCc1ccc(C(=O)Nc2ccccc2F)cc1 | -38 | -5 | -3 | -6.0 | -1 | 2424 | -16
O=C(C(=O)N1CCCCCC1)c1c[nH]c2ccccc12 | -12 | 10 | 7 | -0.2 | 1 | 3124 | -2
CCOC(=O)CNC(=O)CSc1nc(-c2cccc(C)c2)ns1 | 11 | 17 | 25 | 1.1 | 4 | 3918 | 15
C[C@H](CO)N1C[C@H](C)[C@@H](CN(C)CC2CCCCC2)Oc2c(NC(=O)Cc3ccccc3)cccc2C1=O | -2 | 4 | 4 | 39 | -10 | 3081 | /
CCOc1ccc(N=C2SCCCN2C)cc1 | -22 | 7 | -8 | -1.1 | 8 | 9270 | -1
CC(C)CC(NS(=O)(=O)c1cc(C(=O)O)ccc1Cl)C(=O)O (stereo unspecified) | -20 | 15 | 8 | 13 | 5 | 3260 | -4
CC1CCCCN1C(=O)c1ccc(C(=O)c2ccccc2)cc1 (stereo unspecified) | -20 | 22 | 18 | 9.8 | 9 | 3556 | /

Other compounds follow.
SMILES | PrP 5UTR inh | Mtb hypoxia inh | Mtb hypoxia inh growth | RN4220 kill | ugtP null kill | Autofluor counter | BJeLR lethal
CCCc1cc(C(=O)OC)c(NC(=O)OCC)s1 | -1 | -7 | -8 | 0.9 | 13 | 18061* | 5
Cc1ccccc1CNC(=O)CCC(=O)N1Cc2ccccc2Oc2ncccc21 | -1 | -12 | 8 | -2.2 | 0 | 5712 | -3
COc1ccc2[nH]c(N=Nc3ccccc3C)c(O)c2c1 | -40 | 15 | 2 | 5.5 | -8 | 2436 | -10
Cc1nc2cc(-c3cccc(F)c3)nn2c(C)c1CCC(=O)NC(C)CCc1ccco1 (stereo unspecified) | 11 | -10 | 10 | 1.6 | -12 | 4391 | -12
CN1C(=O)C(C)(C)c2cc(S(=O)(=O)N3CCN(c4cccc(Cl)c4)CC3)ccc21 | -7 | / | / | 2.8 | 4 | 6255 | -3
O=C(Nc1ccon1)c1ccc(Cl)s1 | -14 | -2 | -4 | 4.3 | 11 | 17115* | -23
COCCNc1ncnc2c1[nH]c1ccccc12 | -9 | 11 | -3 | 4.7 | -1 | 3880 | -3
Nc1ccc2c(c1)-c1ccccc1S(=O)(=O)N2 | -8 | 13 | 6 | 0.1 | -8 | 9026 | -1
CCC1(C)Cc2c(sc3nc(SC)[nH]c(=O)c23)CO1 (stereo unspecified) | -16 | 21 | 4 | 6.1 | 2 | 4552 | 3
COc1ccc(C(=O)Nc2cccc(-c3nnc(-c4ccco4)o3)c2)cc1 | -38 | 4 | 8 | 17 | -13 | 4252 | 7
Cc1ccsc1C(=O)OCC(=O)NCCCc1ccccc1 | -13 | 5 | 9 | 2.4 | 6 | 4768 | -2
Cc1cccc(-n2c(SCc3cc(=O)n4ccsc4n3)nc3ccccc32)c1 | -14 | 5 | 12 | 2.3 | -7 | 4624 | 3
Cc1c(C(=O)NCC2COc3ccccc3O2)oc2ccc(S(=O)(=O)N3CCOCC3)cc12 (stereo unspecified) | -22 | 5 | 6 | 6.8 | 2 | 3621 | -14
COc1ccc(C(=O)Nc2ccc3c(c2)OCCO3)cc1S(=O)(=O)N1CCOCC1 | 0 | -19 | 0 | -5.4 | -7 | 4089 | /
O=C(Oc1cccc(C(=S)N2CCOCC2)c1)c1ccc([N+](=O)[O-])cc1 | -13 | 2 | 7 | -2.8 | 18 | 3634 | -12
CSCCC(NC(=O)COc1ccccc1)C(=O)N(C)Cc1ccc(Cl)cc1Cl (stereo unspecified) | -18 | 1 | 5 | 6.0 | 5 | 8172 | /

Molecules above with fluorine:
SMILES | PrP 5UTR inh | Mtb hypoxia inh | Mtb hypoxia inh growth | RN4220 kill | ugtP null kill | Autofluor counter | BJeLR lethal
O=C(COc1ccccc1F)NC12CC3CC(CC(C3)C1)C2 | -25 | / | / | 4.6 | -4 | 4274 | 7
Cc1cc(C(=O)NN=Cc2ccc3c(c2)OCO3)c(C)n1-c1ccc(F)cc1 | / | 11 | 10 | 4.6 | 6 | / | /
CC(C)(C)C(=O)N1CCN(c2ncccc2C(F)(F)F)CC1 | -22 | -5 | 12 | 3.1 | 3 | 3733 | -8
O=C(COC(=O)CC1CCS(=O)(=O)C1)Nc1ccc(F)cc1 (stereo unspecified) | -4 | 5 | 12 | 6.0 | 2 | 5867 | /
CCC(c1nnnn1C(C)(C)CC)N1CCN(c2ccccc2F)CC1 (stereo unspecified) | -27 | 4 | 1 | 5.8 | 14 | 5140 | 7
OC1(c2ccccc2F)CC2CCC(C1)N2CCN1CCOCC1 (stereo unspecified) | -2 | / | / | 2.9 | 5 | 4433 | 30
NC(=O)C1CCN(C(=O)CN(c2cccc(C(F)(F)F)c2)S(=O)(=O)c2ccccc2)CC1 | -5 | 14 | 12 | 9.1 | 9 | 2588 | 4
COc1ccccc1OCc1ccc(C(=O)Nc2ccccc2F)cc1 | -38 | -5 | -3 | -6.0 | -1 | 2424 | -16
Cc1nc2cc(-c3cccc(F)c3)nn2c(C)c1CCC(=O)NC(C)CCc1ccco1 (stereo unspecified) | 11 | -10 | 10 | 1.6 | -12 | 4391 | -12
